Assay outcomes as filed in PubChem BioAssay.
Sa growth 42C = inhibitors of Staphylococcus aureus growth at 42 °C; S. aureus RN4220 growth, OD600, 20 h; hits give low values; 170,000 tested, 0.53% active; relative growth, % (concentration not given with the values);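 active = growth at 42 °C up to 50% and 20 or more points under that at 30 °C, or under 10% at both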;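 note: 300 nL library stock went into each well; scaled to the means of positive and negative controls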
GIV Gai3 FP = inhibitors of GIV GBA-motif binding to rat Galpha-i3 | 210,000 tested, 0.42% active | Galpha-i3/FITC-GIV peptide fluorescence polarization, 90 min; hits give low values; scaled: aluminum fluoride 0%, vehicle 100% | P08753 | AID 1224905 | percent of control (FP), % (concentration not given with the values);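 active = replicate mean at 85% of control or lower, very high polarization wells dropped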;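 note: wells of about 15 µL received 100 nL stock; the first replicate is given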
Target sequence (P08753 whole entry, looked up): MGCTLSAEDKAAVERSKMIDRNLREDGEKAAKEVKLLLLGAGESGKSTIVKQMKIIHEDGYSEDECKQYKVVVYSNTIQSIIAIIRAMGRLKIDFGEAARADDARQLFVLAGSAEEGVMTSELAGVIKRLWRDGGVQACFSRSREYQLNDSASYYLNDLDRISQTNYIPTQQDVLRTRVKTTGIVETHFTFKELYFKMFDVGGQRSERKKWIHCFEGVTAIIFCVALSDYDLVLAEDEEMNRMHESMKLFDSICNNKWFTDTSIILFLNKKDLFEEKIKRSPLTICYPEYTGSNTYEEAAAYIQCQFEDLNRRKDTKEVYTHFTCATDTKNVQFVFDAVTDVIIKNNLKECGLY
HCMV UL50-53 inh = cytomegalovirus nuclear egress complex inhibition. HTRF UL50-UL53 interaction, normalized percent inhibition. inhibition, % (no concentration beside the values). 190,000 tested, 0.15% active. AID 1918969;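 active = both replicates at 50% or more, plus weaker picks with an unusually low signal ratio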;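 note: stock transfer was 100 nL into about 20 µL; 0% = negative control wells and 100% = wells with untagged competitor protein; inactives centre near -12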
Sa growth 42C second temp = also measured in Sa growth 42C; calls as there; relative growth, %; measured here: growth at 30 °C;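 optical density after 20 h as mean of two plates; 100% = untreated growth and lower means inhibition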
Numbers without * were called inactive; . = no result given; & = joins results of further samples. Random draw from the library; overall some 0.85% were active at least once.

SMILES	Sa growth 42C	Sa growth 42C second temp	GIV Gai3 FP	HCMV UL50-53 inh
Cc1cc(C)nc(SCC(=O)C2CC2)n1	93	95	.	1
CSc1nc(N2CCCCC2)c2c(c1C#N)CCCC2	101	110	105	.
O=C(Cn1ccc2cc(S(=O)(=O)N3CCCC3)ccc21)NCc1ccc(Cl)cc1	82	89	106&104	18
Cc1cc(C(=O)Nc2ccc3c(c2)OCCO3)cs1	118	102	105	1
S=C1NC(c2ccccc2)=NCN1c1ccc(Cl)cc1	107	89	99	.
CCNC(=O)c1cc2ccc3ccc(C)[nH]c3c2n1	.	.	102	-8
O=C(NC(Cc1c[nH]c2ccccc12)C(=O)Nc1ccccc1)Oc1ccccc1 (stereo not drawn)	95	77	101	-2
CNC(=S)NCCc1c[nH]c2ccc(OC)cc12	92	83	108	-31
CCOC(=O)c1cc(Br)ccc1OCc1ccccc1Cl	106	95	.	-4
CCCCn1c(=O)c2oc3ccccc3c2n(Cc2cccc(F)c2)c1=O	89	90	101	.
O=C(Oc1ccccc1Br)c1cc(-c2ccc3c(c2)OCCO3)on1	.	.	107	15
CCn1c(CN2CCCCC2)nc2cc(NC(=O)COc3ccccc3C(C)(C)C)ccc21	89	101	108	5
COc1cccc(CNC(=O)c2ccc(CSc3nc4cccnc4n3Cc3ccccc3)cc2)c1	.	.	107	-16
O=C(CNC(=O)c1ccc(Cl)cc1)NO	88	81	.	-49
COc1cccc(Cn2c(C)c(CNCc3ccccc3Cl)c(C(=O)O)c2C)c1	105	93	106	2
NNC(=O)C1CCCCC1	97	88	.	-5
N#CCCn1cc(/C=C/C(=O)O)c2ccccc21	85	96	.	-27
Cc1cc(C)n(C(C)CC(=O)NCc2cccs2)n1 (stereo not drawn)	104	87	103	-22
CC(C)NCc1ccc(-c2ccc(F)cc2)o1	.	.	104	-16
CC(=O)N1c2ccccc2NC2=C(C(=O)CC(c3cccc([N+](=O)[O-])c3)C2)C1c1ccc(C)cc1 (stereo not drawn)	.	.	100	-12
Cc1nn(C(C)C(=O)NCCc2ccccc2)c2ccccc12 (stereo not drawn)	93	88	101	-4
CCOc1ccccc1CNC(=O)CSc1n[nH]c(-c2ccccc2)n1	87	77	105	.
Cc1ccc(-c2cc(NC(=O)CN(C)CC3COc4ccccc4O3)on2)cc1 (stereo not drawn)	130	83	.	-25
COc1ccccc1NC(=O)Cn1c(=O)n(CC2CCC(C(=O)NCCc3ccccc3)CC2)c(=O)c2ccccc21 (stereo not drawn)	95	90	106	-16
Fc1cccc2ncnc(OCc3ccccc3)c12	96	65	.	-5
CC1CCCC(C)N1NC(=O)CCN1C(=O)S/C(=C\c2cccs2)C1=O (stereo not drawn)	87	89	.	-45
Cc1cccc(N2C(=NC(=O)c3ccc(Br)cc3)SC3CS(=O)(=O)CC32)c1 (stereo not drawn)	98	68	98	.
C=CCn1ncc(Cc2cnn(CC=C)c2C)c1C	111	85	104	-9
Cc1nnc(N2CCC(C(=O)NCc3cccnc3)CC2)c2nn(-c3ccc(Cl)cc3)c(C)c12	.	.	108	13
Cc1cc(C)nc(-n2c(Nc3ccccc3)cc(=O)c3c(C)n(-c4ccccc4)c(=O)nc32)n1	.	.	105	3
NN=C(c1ccccc1)c1ccccc1	84	52	103	-7
CCOc1ccc(S(=O)(=O)NCC(=O)OCN2C(=O)c3ccccc3C2=O)cc1	96	101	.	-4
O=C1CCCCC1Sc1nnc(-c2ccco2)n1Cc1ccccc1 (stereo not drawn)	102	98	.	-15
COC(=O)c1ccc(S(=O)(=O)NC2Cc3ccccc3C2)n1C	115	87	101	-8
O=C(CN1CCCc2ccccc21)NCc1ccccc1Cl	92	95	.	-8
Cc1nn(-c2ccc(Cl)cc2)c2sc(C(=O)ONC3=NCCCCC3)cc12	98	89	.	-13
COC(=O)c1oc2ccccc2c1N	.	.	93	-20
CCOC(=O)CSc1nnc(-c2c[nH]c3ccccc23)n1-c1ccc(F)cc1	99	83	105	-1
Cc1ccc(C)c(N2C(=O)N(Cc3cc(F)cc(F)c3)c3ccccc3S2(=O)=O)c1	.	.	103	-30
O=C(CSc1ccccn1)c1ccc(OCc2ccc(F)cc2)cc1	123	85	105	-7
Cc1cc(C)c(NC(=O)CSc2nc(=O)n(Cc3ccncc3)c3c2CCC3)c(C)c1	116	91	102	.
O=C(Nc1ccc(-c2nc3cc(Cl)cc(Cl)c3o2)cc1)c1ccc2c(c1)OCCO2	115	101	106	0
CC1Cc2ccccc2N1C(=O)CSc1nc(-c2ccco2)cc(C(F)(F)F)n1 (stereo not drawn)	71	95	106	.
N/C(=N\O)c1snnc1-c1ccccc1	107	90	96	-18
Cc1nc(Oc2ccc(NC(=O)c3ccccc3)cc2)c2c3c(sc2n1)CCC3	99	86	96	.
CCn1c(SCC(N)=O)nnc1C(C)Oc1ccc(F)cc1 (stereo not drawn)	106	105	100	-26
COc1ccccc1Nc1nc(N)nc(CN2CCc3ccccc3C2)n1	21	1	102	.
CCn1c(=O)c(N2CCC(C(=O)NCc3ccc(OC)cc3)CC2)nc2cccnc21	.	.	101	-21
Cc1ccccc1Nc1nc(N)nc(COc2ccc3c(C)cc(=O)oc3c2)n1	97	89	.	-13
N#Cc1ccc(COC(=O)Cc2ccccc2)cc1	95	84	.	-30
CC(C)NS(=O)(=O)c1ccc(OCC(=O)N2CCN(c3ccccc3F)CC2)cc1	117	91	108	7
O=C(COc1cc(Cl)ccc1Cl)NCc1ccccc1	106	91	.	-5
O=C(c1ccc(F)cc1)N1CCCCC(Sc2nnc(-c3ccc4c(c3)OCO4)o2)C1=O (stereo not drawn)	80	92	.	-32
COc1ccc(C2C(C(=O)Nc3ccc(C)cc3)=C(C)Nc3nnnn32)cc1 (stereo not drawn)	.	.	102	-14
Cc1oc2c(c1C(=O)Nc1ccc(C(=O)O)cc1)CCCC2	89	87	104	-18
CCCOc1ccccc1C(=O)N1CCCCC1CCN1CCOCC1 (stereo not drawn)	99	86	98	-33
C=C(C)Cn1c(SCC(=O)Nc2cccc(C)c2)nc2sc3c(c2c1=O)CCCC3	100	101	100	14
CCN(CC)S(=O)(=O)c1ccc2nc(SC)sc2c1	98	99	109	3
O=C1CCC(=O)N1c1ccc(Cl)cc1	99	87	108&101	-23
O=C(Cn1cnc2c(nnn2-c2ccccc2)c1=O)NC1CCCC1	103	95	104	23

Shown with values under each structure: part of the list above.
Second line of a record – Sa growth 42C | Sa growth 42C second temp | GIV Gai3 FP | HCMV UL50-53 inh
- COc1ccc(C2C(C(=O)Nc3ccc(C)cc3)=C(C)Nc3nnnn32)cc1 (stereo not drawn)
 : . | . | 102 | -14
- Cc1oc2c(c1C(=O)Nc1ccc(C(=O)O)cc1)CCCC2
 : 89 | 87 | 104 | -18

Continuation.
SMILES	Sa growth 42C	Sa growth 42C second temp	GIV Gai3 FP	HCMV UL50-53 inh
COc1ccc(CCNC(=O)c2ccc3c(c2)N(Cc2ccccc2F)C(=O)c2ccccc2S3(=O)=O)cc1OC	112	98	99	6
CN(Cn1[nH]c(-c2cccs2)nc1=S)C1CCCCC1	52	64	.	-62
CCS(=O)(=O)N1CCc2cc(C(=O)NCc3ccccc3OC)ccc21	100	84	98	-7
Cc1nnc(-c2ccccc2)c(=O)n1/N=C/c1cccs1	94	92	.	-49
Cc1ccnc2c1ccc1ccccc12	96	66	97	-32
Oc1ccc2ccccc2c1CN1CCN(Cc2cccs2)CC1	102	85	.	-30
CCc1ccc(OCC(=O)N(CC)CC)cc1	96	90	.	-6
O=C1c2ccccc2C(=O)C1(Nc1ccccc1)c1ccccc1	98	95	.	-8
Cc1ccc2occ(CN3CCSCC3)c(=O)c2c1	104	95	108	-12
O=C(O)c1csc(C2COc3ccccc3O2)n1 (stereo not drawn)	85	85	106	-7
CCC(C)(C)NC(=O)C1CCC(CNS(=O)(=O)c2cccc3nsnc23)CC1 (stereo not drawn)	102	92	100	-65
CN(C)c1ccc(C(CNS(C)(=O)=O)N(C)C)cc1 (stereo not drawn)	.	.	100	-33

3 entries from above, arranged by molecular weight, descending.
SMILES	Sa growth 42C	Sa growth 42C second temp	GIV Gai3 FP	HCMV UL50-53 inh
COc1ccccc1NC(=O)Cn1c(=O)n(CC2CCC(C(=O)NCCc3ccccc3)CC2)c(=O)c2ccccc21 (stereo not drawn)	95	90	106	-16
Cc1cc(C)n(C(C)CC(=O)NCc2cccs2)n1 (stereo not drawn)	104	87	103	-22
CCc1ccc(OCC(=O)N(CC)CC)cc1	96	90	.	-6

The listing continues:
SMILES	Sa growth 42C	Sa growth 42C second temp	GIV Gai3 FP	HCMV UL50-53 inh
COc1ccccc1-c1cc(C(F)(F)F)nc(S(=O)(=O)CCCC(=O)Nc2ccc(F)cc2F)n1	94	83	106	-29
CCOc1ccc(C(=O)CSc2nnc3c(n2)CCCC3)cc1NC(=O)CC	84	59	98	-43
O=C(COC(=O)c1cccc(C(F)(F)F)c1)NC1CCS(=O)(=O)C1 (stereo not drawn)	94	97	.	-14
NNC(=O)c1nn(-c2ccc(Cl)cc2)cc1O	78	82	.	-13
O=C(c1cc2ccccc2nc1-c1ccco1)C(F)(F)F	76	64	89	-16
O=C(CNC(=O)c1ccccc1)OCc1cc(=O)n2nc(C3CC3)sc2n1	75	88	105	.
COc1cc(C(=O)Nc2ccc3c(c2)ncn3C(C)(C)C)cc(OC)c1OC	88	81	109	-38
COc1ccc(NC(=O)CSc2nc(O)cc(=O)[nH]2)cc1	100	90	101	.
COC(=O)C1=C(C)NC(=O)/C1=C\c1ccc(Cl)cc1	105	96	103	24
Cc1ccc(N2CCN(C(=O)c3ccc(Nc4nc5ccccc5n5nnnc45)cc3)CC2)c(C)c1	122	97	106	2
Nc1ccc2c(c1)CN(Cc1ccccc1)C2	90	74	100	-11
CCOc1nc(N)c(C#N)c(-c2ccccc2)c1C#N	120	99	114	-9
CCOc1ccc(C(=O)c2cn(Cc3ccccc3OC)c3cc4c(cc3c2=O)OCCO4)cc1	108	87	98	-34
CCOC(=O)c1c(C)nc2c(c1-c1ccc(OC)c(OC)c1)C(=O)c1ccccc1-2	76	81	.	-22
O=C(Cc1ccccc1)Nc1sc2c(c1C(=O)Nc1ccccc1Cl)CCC2	96	85	104	-27
CN(Cc1ccccc1)S(=O)(=O)c1ccccc1	105	94	.	-7
O=C(c1ccc2c(Cl)c3c(nc2c1)CCC3)N1CCN(C(=O)c2ccco2)CC1	111	79	104	-15
O=C1CCCC2=C1C(c1cccs1)CC(=O)N2c1ccccc1 (stereo not drawn)	107	98	.	9
Cc1ccccc1-c1noc(-c2ccc(NCc3cccnc3)c([N+](=O)[O-])c2)n1	103	96	112	-5
CCCS(=O)(=O)N1CCN(S(=O)(=O)c2ccccc2)CC1	104	83	99	-22
CCc1nnc(SCC(=O)Nc2cccc(C)c2)nc1CC	106	85	102	-16
COc1ccc(CNC(=O)C2=C(C)C(=O)OC23CCN(C(C)=O)CC3)cc1	105	94	110	.
CN(C)C(CNS(=O)(=O)c1ccc(Cl)cc1)c1ccccc1 (stereo not drawn)	100	95	101&94	-1&8
Cc1cc2c(cc1C)N(C(=O)CSc1ncn[nH]1)C(C)(C)c1ssc(=S)c1-2	.	.	103	-67
Cc1ccc2nc(NC(=O)C(F)(F)F)sc2c1	75	10	.	-13
O=C(c1ccc2c(=O)[nH][nH]c(=O)c2c1)N1CCN(c2cccc(C(F)(F)F)c2)CC1	75	93	.	-15
CCC1C(=O)C(C)(C)C(=O)OC1c1cccc(Br)c1 (stereo not drawn)	103	83	.	-13
CCn1c(C(=O)N2CCC(C(=O)NCCc3ccc(C)cc3)CC2)cc2sccc21	99	76	99	-3
COc1ccc(S(=O)(=O)N2Cc3ccccc3CC2C(=O)NC(C)(C)C)cc1OC (stereo not drawn)	88	84	97	-13
CC(NC(=O)CN1C2CCC1CC(=O)NC2)c1ccccc1 (stereo not drawn)	96	85	107	5
COc1ccc2cc3c(nc2c1)N(C(=O)c1ccc(S(=O)(=O)N(C)C)cc1)CC3	.	.	106	-15
O=c1[nH]nc(SCc2cc(=O)n3ccccc3n2)n2nc(-c3ccc(F)cc3)cc12	.	.	103	-16
Cc1[nH]cnc1C(=O)N/N=C/c1ccncc1	95	91	107	-85
Cc1cccc(NC(=O)CSc2nc3c(oc4ccccc43)c(=O)n2C2CCCC2)c1C	109	99	103	9
O=C(CN1C(=O)COc2ccc(S(=O)(=O)N3CCCCCC3)cc21)N1CCN(c2ccc(Cl)cc2)CC1	95	90	103	15
CC(CC(=O)NCC(c1ccc(F)cc1)N1CCOCC1)n1ccnc1 (stereo not drawn)	105	90	.	-26
COc1ccccc1OCC(=O)N(Cc1ccc(Cl)cc1)CC1CCCO1 (stereo not drawn)	104	84	108	-34
Cc1nc(-c2cc(S(=O)(=O)NCC(=O)N3CCc4ccccc4C3)c(C)s2)no1	.	.	104	2

Compounds shown so far with a COOH group (four):
SMILES	Sa growth 42C	Sa growth 42C second temp	GIV Gai3 FP	HCMV UL50-53 inh
COc1cccc(Cn2c(C)c(CNCc3ccccc3Cl)c(C(=O)O)c2C)c1	105	93	106	2
N#CCCn1cc(/C=C/C(=O)O)c2ccccc21	85	96	.	-27
Cc1oc2c(c1C(=O)Nc1ccc(C(=O)O)cc1)CCCC2	89	87	104	-18
O=C(O)c1csc(C2COc3ccccc3O2)n1 (stereo not drawn)	85	85	106	-7
